PABP polyA inh: PABP-poly(A) binding inhibition; 1% of 290,000 active; inhibition, % at 35 µM; AID 2014; PABP-poly(A) RNA binding, fluorescence polarization; P11940;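 active means 50% or more with normal probe brightness, or confirmed in later tests; inconclusive means above 50% with abnormal brightness, or retests that disagree; inactive means below 50% or failed in later tests; about a fifth of its hits are not listed in these tables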;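 further: calls also rest on retests at 20 µM and on dose response follow-up; controls were probe without protein and protein plus probe with vehicle; some compounds called inactive have numbers as strong as hits; many hits fall short of the cut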
Target sequence (P11940 whole entry, looked up): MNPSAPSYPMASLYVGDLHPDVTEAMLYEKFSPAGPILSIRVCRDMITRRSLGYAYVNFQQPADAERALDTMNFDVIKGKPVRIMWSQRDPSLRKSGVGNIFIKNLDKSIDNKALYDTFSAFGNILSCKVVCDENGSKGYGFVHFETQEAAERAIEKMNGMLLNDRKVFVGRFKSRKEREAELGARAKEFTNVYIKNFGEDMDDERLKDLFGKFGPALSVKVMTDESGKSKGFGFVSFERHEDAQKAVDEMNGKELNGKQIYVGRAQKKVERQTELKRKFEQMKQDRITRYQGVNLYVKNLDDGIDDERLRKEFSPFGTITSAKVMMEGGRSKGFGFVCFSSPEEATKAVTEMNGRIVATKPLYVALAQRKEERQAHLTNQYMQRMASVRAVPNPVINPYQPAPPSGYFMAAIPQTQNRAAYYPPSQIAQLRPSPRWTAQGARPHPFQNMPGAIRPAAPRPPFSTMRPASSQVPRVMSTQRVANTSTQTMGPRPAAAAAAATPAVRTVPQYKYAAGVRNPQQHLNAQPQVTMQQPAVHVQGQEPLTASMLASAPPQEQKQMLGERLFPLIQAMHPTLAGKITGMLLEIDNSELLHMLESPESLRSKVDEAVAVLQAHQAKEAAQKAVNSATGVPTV
Rce1 inh: yeast Ras-converting enzyme inhibition. yeast membranes, quenched prenylated peptide cleavage fluorescence. calls only. 0.27% of 290,000 active. AID 2563;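 active means fall in fluorescence gain of 50% or more versus controls, with final raw signal at or below 3038400; inconclusive means same 50% fall but final raw signal above 3038400; inactive means fall in fluorescence gain under 50%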;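 further: plate controls were neutral control wells for no effect and wells lacking membranes for full effect; tested at 10 µM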
Target sequence (Q03530 whole entry, looked up): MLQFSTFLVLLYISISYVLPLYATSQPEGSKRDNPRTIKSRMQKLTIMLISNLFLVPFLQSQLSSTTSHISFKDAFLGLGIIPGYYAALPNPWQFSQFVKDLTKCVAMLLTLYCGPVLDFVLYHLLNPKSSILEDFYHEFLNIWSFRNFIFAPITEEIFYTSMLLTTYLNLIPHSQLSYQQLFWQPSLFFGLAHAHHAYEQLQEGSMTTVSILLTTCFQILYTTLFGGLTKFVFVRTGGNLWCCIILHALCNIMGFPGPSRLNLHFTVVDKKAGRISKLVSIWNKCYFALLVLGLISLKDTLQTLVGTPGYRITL
HIV Env fusion: HIV envelope-mediated fusion inhibition; HeLa-JRFL Env/CEM21 cell fusion, luciferase; inhibition, % at 12.3 µM; 1.1% of 360,000 active;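 active means mean replicate inhibition score of at least 50 and every replicate individually at or above 50; inconclusive means only one of the two criteria met; inactive means mean below 50 and not all replicates reaching 50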;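 further: 0% = plate neutral controls and 100% = maraviroc near 300 nM; one replicate is shown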
MT1-MMP act inh: blocks activation of human MT1-MMP | AID 651647 | P50281 | GFP/RFP ratio change, % at 20 µM | 0.061% of 360,000 active | HT1080 RFP-PRO-GFP cells, GFP/RFP ratio fluorescence, overnight; percent of plate control window, DMSO zero;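 active means GFP/RFP ratio change of at least 30% with cell ATP level not reduced by more than half and red fluorescence within 50% of control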; further: strong numbers were not always called active
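Assay system – RFP-PRO-GFP reporter HT1080 cells · Compound dosing – single dose of 20 µM compound, 1% DMSO final · Incubation – overnight compound exposure at 37 °C · Measure – GFP/RFP fluorescence ratio · Benchmarks – DMSO wells and RFP-L50D-GFP cells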
eIF4H FP inh: inhibitors of RNA binding by human eIF4H; eIF4H fluorescence polarization binding assay; inhibition, % at 35 µM; 0.94% of 290,000 active; AID 2012;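 active means 50% or more with normal probe brightness, or confirmed in later tests; inconclusive means above 50% with abnormal brightness, or retests that disagree; inactive means below 50% or failed in later tests; about a fifth of its hits are not listed in these tables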;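 further: calls also rest on retests at 20 µM and on dose response follow-up; 0% = protein and probe with vehicle and 100% = probe without protein; strong numbers were not always called active; many hits fall short of the cut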
CSC inhib: cancer stem cell inhibition; 1.1% of 300,000 active; cancer stem cell-like cells viability, luminescence; inhibition, % at 7.5 µM;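 active means mean at 75% or more and at least half the replicates too; inconclusive means mean and replicates disagree; tested in HMLE shEcad cells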;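 further: 0% = median of negative and 100% = median of positive control wells; the first replicate is given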
UUG fidelity: yeast start codon fidelity modulation | activity score, % at 18.7 µM | S. cerevisiae UUG-firefly luciferase reporter, luminescence/redox ratio | 0.13% of 350,000 active;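 active means replicate mean at a twofold rise or more, about +100% in these data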;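 further: firefly luciferase made from a UUG start codon reports start codon fidelity; reporter light over untreated wells divided by growth signal over untreated wells; some hits fall short of that in this replicate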
eIF4H FP inh retest: further read-out of eIF4H FP inh, marked with its call; inhibition, %; compound at 20 µM; confirmation average;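 mean of two retest wells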
PABP polyA inh retest: recorded beside PABP polyA inh, whose call it bears; inhibition, %; compound at 20 µM; confirmation repeats;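 mean of two retest wells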
MT1-MMP act inh RFP: recorded beside MT1-MMP act inh, whose call it bears; RFP signal change, %; measured here: RFP expression control read;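 0 = vehicle wells; hits needed this value within 50% of zero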
Active calls of the source: *; i = inactive; ? = inconclusive; / = not tested or not shown.

SMILES	PABP polyA inh	Rce1 inh	HIV Env fusion	MT1-MMP act inh	MT1-MMP act inh RFP	eIF4H FP inh	CSC inhib	UUG fidelity	others
CCCCC(=O)Nc1ccccc1C(=O)OCC(=O)c1ccc2c(c1)OCCO2	-28	i	/	0	0	-15	12	/
Cn1cc(CNCc2ccc(OC(F)(F)F)cc2)c(-c2ccc3c(c2)OCCO3)n1	-16	i	-7	-14	-29	-2	30	-5
CC(C)(C)OC(=O)NC1CNNC1=O (stereo not given)	/	/	4	0	0	/	-12	-20
CC(CC(=O)N1CCN(c2ccccc2)CC1)S(=O)(=O)c1ccc2c(c1)NC(=O)CO2 (stereo not given)	17	i	3	2	-21	1	-1	6
O=C1NC(CCc2ccccc2)C(=O)N1Cc1cccc2ccccc12 (stereo not given)	-1	i	10	0	-1	-2	13	/
COc1ccc(/C=N/NC(=O)c2ccccc2NC(=O)c2ccco2)c(OC)c1	10	i	-6	-1	-5	7	-3	/
Cc1cc(=O)[nH]c(Nc2ccc(Cl)cc2)n1	/	i	-20	0	3	/	-9	-15
CC12CCC(c3c(C(=O)N4CCOCC4)nn(-c4ccccc4)c31)C2(C)C (stereo not given)	2	/	-7	1	2	92	4	/	eIF4H FP inh retest=6;PABP polyA inh retest=10
CCOC(=O)CNc1c(-c2ccc(O)cc2)nc2ccc(Cl)cn12	30*	i	-126	1	-2	80*	9	-32	eIF4H FP inh retest=82*;PABP polyA inh retest=57*
CC(C)NC(=O)c1ccccc1NC(=O)c1ccccc1N(C)S(C)(=O)=O	4	i	4	3	3	-3	-6	-16
O=C(NC(Cc1c[nH]c2ccccc12)C(=O)N/N=C/c1ccc(Cl)cc1)c1cccs1 (stereo not given)	-13	i	18	2	-7	3	34	/
Cc1cc(C)c2c(n1)sc1c(O)cc(=O)[nH]c12	10	i	-19	-2	0	43	3	-9
COc1ccccc1C(=O)NCCC(=O)N1CCN(S(=O)(=O)c2ccccc2C(F)(F)F)CC1	/	/	5	-3	-3	/	/	9
CCCSc1ccc([C@@H]2[C@@H]3C(=O)N(CC)C(=O)[C@@H]3[C@]3(C(=O)OC)CCCCN23)cc1OC	/	/	20	5	-3	/	/	-1
Cc1ccc2[nH]cc(CCNC(=O)CN3C(=O)c4ccccc4C3=O)c2c1	-10	i	-55	0	-2	-6	-8	/
COc1cccc(-c2nc(CS(=O)(=O)CC(=O)NC3CCCCCC3)c(C)o2)c1	8	i	15	-1	-9	2	-9	2
Cc1ccc2nc(SC(C)C(=O)NC3CCCC3)[nH]c2c1 (stereo not given)	/	/	10	0	-3	/	-9	-24
CCOc1ccccc1-c1nc(C(N)=O)c2[nH]c(=O)n(-c3cccc(C)c3)c2n1	6	i	/	6	1	-14	/	-9
COc1cc(NS(=O)(=O)c2ccc(C)cc2)c2ncccc2c1	-8	i	23	-13	-19	13	38	/
Cc1ccc(Nc2ccc(C(=O)O)cc2[N+](=O)[O-])cc1	0	i	4	5	3	5	-3	/
O=C(CSc1nncn1-c1cccnc1)Nc1ccccc1C(F)(F)F	0	i	10	0	3	6	/	-14
CCN1CCCc2cc(CN(CCN3CCOCC3)C(=S)Nc3cc(F)cc(F)c3)ccc21	-5	i	3	-1	-3	4	3	-20
O=c1c2[nH]cnc2n(-c2cccc(Br)c2)c(=O)n1Cc1ccccc1	6	i	10	-6	2	-6	6	5
Cn1c(=O)c2c(ncn2CC(=O)OCC(=O)NC2CCCc3ccccc32)n(C)c1=O (stereo not given)	-9	i	12	-2	4	8	-22	-10
COc1ccc(NC(=O)COC(=O)c2cc(Cl)ccc2O)cc1S(=O)(=O)N1CCCCC1	/	/	-7	5	-3	/	/	-14
O=C(c1ccc2c3c(cccc13)CC2)N1CCN(c2ncccn2)CC1	/	i	/	-4	-10	/	-20	30
COc1cc(CNC(=O)c2ccc3c(c2)S(=O)(=O)c2ccccc2C3=O)cc(OC)c1	/	i	5	5	4	/	0	-12
CCOc1nc(C)ccc1-c1noc(CC)n1	-4	i	0	0	-2	6	1	-6
CC(C)OC(=O)CC(=O)CSc1nc(-c2ccc(F)cc2)cc(-c2ccccc2)c1C#N	19*	i	2	-16	-5	88*	38	/	eIF4H FP inh retest=93*;PABP polyA inh retest=62*
C=C(CCO)C1=CCN(S(=O)C(C)(C)C)[C@@H]1CCO (stereo not given in full)	/	/	3	2	5	/	/	-13
Cc1cccc(Cn2cc(SCC(=O)Nc3nccs3)c3ccccc32)c1	10	i	-17	7	-1	-3	10	-8
CN1CCc2c(sc(NC(=O)c3ccc(S(=O)(=O)N4CCCCCC4)cc3)c2C(N)=O)C1	48	i	/	-71	-1	?	9	-9
COc1ccccc1CC(=O)N1CCN(c2cccc(C(F)(F)F)c2)CC1	12	i	66*	0	-25	19	3	-13
CC1(C(=O)NCc2cccc(C(F)(F)F)c2)CCN1Cc1cc2ccccc2o1 (stereo not given)	/	/	20	-3	-6	/	/	3
CC(=O)c1cccc(NC(=S)NCc2ccco2)c1	-10	i	11	-1	-3	4	/	/
CN(C)CCN1C(=O)C(=O)/C(=C(/O)c2ccc(F)cc2)C1c1ccccc1F (stereo not given)	0	i	-24	-2	0	7	/	-7
COc1ccccc1-c1sc2cc3c(cc2c1-c1ccc(O)cc1)OCO3	/	/	19	0	-2	/	/	-13
COC(=O)c1c(NC(=O)COC(=O)[C@@H](NS(=O)(=O)c2ccccc2)C(C)C)sc2c1CCC2	13	i	12	-3	-7	-4	-20	-46
CCN(CC)C(=O)[C@H]1CC(CC(=O)NCc2cccc(C(F)(F)F)c2)C(=O)N2CCc3c([nH]c4ccccc34)[C@]12C (stereo not given in full)	/	/	-140	-14	-18	/	/	-5
CC1(C)CC(=O)C(N=Nc2cccc(F)c2C#N)=C(O)C1	2	i	13	5	5	-1	3	-18
Cc1cccc2c1-c1sc(C(=O)Nc3nccs3)cc1CO2	10	i	-84	-2	-13	-4	18	-10
CC1=NCCN1S(=O)(=O)c1ccccc1[N+](=O)[O-]	26	i	-15	3	5	2	3	-17
OC(c1ccccc1)(c1nc(-c2ccccc2)cs1)C(F)(F)F (stereo not given)	/	/	17	0	-6	/	/	6
CC(c1ccco1)N(C(=O)C12CC3CC(CC(C3)C1)C2)c1ccccn1 (stereo not given)	0	i	/	-6	-5	3	-15	-18
Cc1cc(C)c(C(=O)CSc2nnc(-c3ccccc3Br)o2)cc1C	-6	i	/	-1	-3	-3	/	-4
COc1ccc(CCNC(=O)COc2ccc(S(=O)(=O)NC(C)C)cc2)cc1OC	-3	i	4	-1	3	-2	-52	/
Cc1ccc(NC(=O)CSCC(=O)Nc2nnc(C3CC3)s2)cc1	/	i	1	-3	0	/	-3	-18
Cc1cc(C)nc(Nc2ccc(O)cc2)n1	3	i	-7	0	2	-3	-8	-10

By substructure: the entries above with an aryl thioether with sulfur outside any ring
SMILES	PABP polyA inh	Rce1 inh	HIV Env fusion	MT1-MMP act inh	MT1-MMP act inh RFP	eIF4H FP inh	CSC inhib	UUG fidelity	others
CCCSc1ccc([C@@H]2[C@@H]3C(=O)N(CC)C(=O)[C@@H]3[C@]3(C(=O)OC)CCCCN23)cc1OC	/	/	20	5	-3	/	/	-1
Cc1ccc2nc(SC(C)C(=O)NC3CCCC3)[nH]c2c1 (stereo not given)	/	/	10	0	-3	/	-9	-24
O=C(CSc1nncn1-c1cccnc1)Nc1ccccc1C(F)(F)F	0	i	10	0	3	6	/	-14
CC(C)OC(=O)CC(=O)CSc1nc(-c2ccc(F)cc2)cc(-c2ccccc2)c1C#N	19*	i	2	-16	-5	88*	38	/	eIF4H FP inh retest=93*;PABP polyA inh retest=62*
Cc1cccc(Cn2cc(SCC(=O)Nc3nccs3)c3ccccc32)c1	10	i	-17	7	-1	-3	10	-8
Cc1cc(C)c(C(=O)CSc2nnc(-c3ccccc3Br)o2)cc1C	-6	i	/	-1	-3	-3	/	-4

(listing goes on)
SMILES	PABP polyA inh	Rce1 inh	HIV Env fusion	MT1-MMP act inh	MT1-MMP act inh RFP	eIF4H FP inh	CSC inhib	UUG fidelity	others
CCOc1ccc(S(=O)(=O)N2CCN(C(=O)Cc3ccc(S(=O)(=O)N4CCOCC4)s3)CC2)cc1	/	/	10	-3	-7	/	33	/
COC(=O)c1ccc(C2/C(=C(\O)c3ccc(OC)c(C)c3)C(=O)C(=O)N2c2cc(C)on2)cc1 (stereo not given)	16	i	27	8	5	1	-9	-16
Cc1ccc(NC(=O)C(=O)N2CCCC2)cc1Cl	4	i	-48	0	2	6	8	/
Cc1cc(C(=O)COc2ccc(F)cc2Br)c(C)n1C1CC1	/	/	-28	-5	-17	/	/	-2
CCOC(=O)c1nnc(-c2ccccc2)nc1Sc1ccccc1Cl	4	i	/	-8	-11	-2	58	-13
CCN(CC)CCn1c2c(c(SCC(=O)Nc3cc(OC)cc(OC)c3)nc1=O)CCC2	/	i	61*	0	1	/	-3	-5
CC(=O)N(Cc1ccccc1)c1ccc(C(=O)O)cc1	3	i	13	4	8	-1	1	-7
COc1cc(CC(=O)O)c([N+](=O)[O-])cc1OC	-11	i	6	-2	8	-6	-7	/
CCOc1ncccc1C(=O)NCc1cccc(OC)c1	8	i	9	9	7	-4	-13	17
Cc1cc(NC(=O)c2cccc([N+](=O)[O-])c2)no1	8	i	0	1	-1	3	3	/
N=C1SCC(=O)N1c1ccccc1Cl	4	i	-19	1	5	5	5	-23
CCOC(=O)c1c(-c2cccc(N)c2)cn2ccccc12	5	i	-1	-2	0	-4	-5	-13
OCCN1CCSC1=S	/	/	7	-1	4	/	/	-9
Cc1ccc(NC(=O)c2snc3ccc(Cl)cc23)cc1C	-11	i	-36	-6	-1	-10	-1	/
CCCC(C)NC(=O)CSc1nnc(-c2c[nH]c3ccccc23)o1 (stereo not given)	0	i	-2	7	5	-2	-10	/
CCOc1ccc2ccccc2c1C(=O)N1CCN(c2ccccc2)CC1	-6	i	/	-9	-16	-12	/	-7
O=C(NC(=S)Nc1cccc(NC(=S)NC(=O)c2ccccc2)c1)c1ccccc1	/	/	i	-8	2	/	/	-10
Cc1ccc(S(=O)(=O)N(Cc2ccccc2)Cc2ccco2)cc1	-9	i	/	3	-4	-10	/	-15
O=C(NCCN1CCN(c2ccccc2)CC1)C1CCN(S(=O)(=O)c2cccc3nonc23)CC1	6	i	/	0	-2	3	/	-14
COc1ccc(CCNc2ccc(N3C(=O)CC(C)C3=O)cc2[N+](=O)[O-])cc1OC (stereo not given)	-10	i	68*	19	-29	4	1	-12
COC(=O)N1C(=O)[C@](c2ccc(OC)cc2)(C(C)C)N1C(=O)OC	-7	i	22	-2	-2	1	8	-8

Two compounds drawn at random from those above, as already listed:
SMILES	PABP polyA inh	Rce1 inh	HIV Env fusion	MT1-MMP act inh	MT1-MMP act inh RFP	eIF4H FP inh	CSC inhib	UUG fidelity	others
Cc1ccc(NC(=O)c2snc3ccc(Cl)cc23)cc1C	-11	i	-36	-6	-1	-10	-1	/
Cc1ccc(S(=O)(=O)N(Cc2ccccc2)Cc2ccco2)cc1	-9	i	/	3	-4	-10	/	-15

Three structures from above, arranged by formula weight, largest number first:
SMILES	PABP polyA inh	Rce1 inh	HIV Env fusion	MT1-MMP act inh	MT1-MMP act inh RFP	eIF4H FP inh	CSC inhib	UUG fidelity	others
COc1ccc(CCNc2ccc(N3C(=O)CC(C)C3=O)cc2[N+](=O)[O-])cc1OC (stereo not given)	-10	i	68*	19	-29	4	1	-12
Cc1ccc(NC(=O)c2snc3ccc(Cl)cc23)cc1C	-11	i	-36	-6	-1	-10	-1	/
OCCN1CCSC1=S	/	/	7	-1	4	/	/	-9
